Assay outcomes (PubChem)
fixLJ activator: activators of Burkholderia fixLJ two-component system, primary screen, B. multivorans, GFP reporter; hit rate 0.3% among 29,000; B. multivorans fixK-promoter GFP reporter, 18 h; stronger effect = higher value; z-score (concentration not given with the values);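 active = replicate mean overnight rise in green fluorescent reporter signal, 3 or more SD over negative controls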;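 note: score is relative to vehicle wells of the plate; 300 nL library stock went into each well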
* marks the source's active call; other numbers are inactive results; & = joins results of further samples. The list is partial; rates above refer to the full screens.

SMILES	fixLJ activator
CCN(CC)CCCNC(=O)C(C)n1nc(C)n2c(cc3occc32)c1=O (configuration not stated)	-0.21
CC(C)Oc1cc(NCc2nnc3n2CCCCC3)nc(N)n1	-0.01
CC(C)N(C)Cc1nnnn1CC(=O)NCc1nc(-c2ccccc2)cs1	-1.52
COc1ccc(C2N3CC4(C)CN2CC(c2ccccc2)(C3)C4=O)cc1 (configuration not stated)	-2.06
CCC1CCCCN1C(=O)Cn1c(=O)n(CCCCCC(=O)NCc2ccccc2Cl)c(=O)c2sccc21 (configuration not stated)	-2.14
Cc1ccc([C@H]2Nc3ccc(S(=O)(=O)Nc4cccc(Cl)c4C)cc3[C@H]3C=CC[C@H]32)cc1	0.89
CCCCOc1cccc(C(=O)Nc2sc3c(c2C(=O)OCC)CCCC3)c1	0.14
O=C(c1cccc(Cl)c1)N(Cc1cccc(F)c1)C1CCS(=O)(=O)C1 (configuration not stated)	0.38
O=C(O)c1ccc(OC2COCCC2NC(=O)c2cccnc2)cc1 (configuration not stated)	-2.12
COCCn1cnnc1CCNC(=O)N(C)Cc1cn[nH]c1C	1.43
Cc1ccn2c(Nc3ccccc3C)c(-c3ccncc3)nc2c1	-0.33
Cc1ccc(-c2ccc(=O)[nH]n2)cc1NC(=O)C(N)Cc1c[nH]c2ccccc12 (configuration not stated)	0.34
Cc1cc(C)c2nc(N3CCCC(C(=O)NCc4ccccc4F)C3)sc2c1 (configuration not stated)	-0.84
CCOC(=O)C1CCN(CC(=O)Nc2cc(C)c3c(=O)oc4ccccc4c3n2)CC1	-1.32
Cc1nc2scc(C)n2c(=O)c1S(=O)(=O)Nc1cccc(C(F)(F)F)c1	0.53
Cc1cccc(C)c1NC(=O)NCCc1c[nH]c2ccccc12	-1.64
COc1ccccc1NC(=O)CN1CCCN(S(=O)(=O)c2ccc(Br)cc2)CC1	0.33
Cc1ccc(CNC(=O)CS(=O)(=O)Cc2nc(-c3ccccc3C)oc2C)cc1	0.15
CC(C)n1ccc(C(=O)N2C[C@@H]3COC[C@H](C2)N(Cc2ccc(F)cc2F)C3)n1	0.19
O=C(CC1C(=O)OCCN1Cc1ccccc1)Nc1cccc(C(F)(F)F)c1 (configuration not stated)	-1.27
COc1cccc(NC(=O)CSc2nc(-c3ccccc3)nc3c2Cc2cc(Cl)ccc2O3)c1	-0.9
O=C(Cn1ncc2c3ccccc3n(Cc3ccc(F)cc3)c2c1=O)NCc1cccs1	-0.7
Cc1cn(CCn2cnc(-c3ccccc3)c2CCn2nc(C)cc2C)nn1	-0.04
COc1ccc(Br)cc1Cn1nnc(C(=O)Nc2ccc(C)cc2C)c1N	0.26
Cc1cc2c(cc1C)NC(CC(=O)Nc1cccc(Cl)c1)C(=O)N2 (configuration not stated)	-2.07
Further compounds
SMILES	fixLJ activator
COc1cccc(C(=O)N2c3ccc(C)cc3C(C)(c3ccccc3)CC2(C)C)c1 (configuration not stated)	-0.45
O=C(c1nc2ccc(Cl)cn2c1F)N1CCC2(CC1)C(O)CC2O (configuration not stated)	-0.84
COc1ccccc1CNC(=O)CCCCn1c(=O)c2ccccc2n(CC(=O)Nc2cc(Cl)ccc2C)c1=O	-2.58
CC(C)(CO)CCCNC(=O)N1CCC1c1ccc(F)cc1 (configuration not stated)	-1.09
O=C(NCc1csc(N2CCCC2)n1)Nc1cccc2c1CCC2	-1.52
N#C/C(=C\c1cccc(F)c1)c1nc(-c2cc3c(ccc4ccccc43)oc2=O)cs1	0.43
COc1ccccc1-c1ncc(-c2nccn2C(C)c2nc(C)no2)s1 (configuration not stated)	-0.56
Cc1cc(NC(=O)C2CCCN(S(=O)(=O)c3cccc4nsnc34)C2)ccc1Br (configuration not stated)	-2.32
CCN(CC)CCNC(=O)c1ccc(NC(C)=O)cc1	-0.3
COc1cccc(NC(=O)CN(C)S(=O)(=O)c2ccc3nc(C)sc3c2)c1	0.17
COc1cccc(CNC(=O)CNS(=O)(=O)c2ccc3nc(C)sc3c2)c1	-2.44
Cc1cccc(-n2c(=O)c3ccccc3n(Cc3ccccc3)c2=O)c1	-2.21
CCOC(=O)N1CCc2c(sc3c2c(=O)n(Cc2ccccc2)c(=O)n3Cc2cc(C)ccc2C)C1	-0.37
CN(C)S(=O)(=O)c1ccc(C(=O)N2CC(=O)Nc3ccc(Br)cc3C2c2ccc(F)cc2)cc1 (configuration not stated)	-1.41
CCn1c(=O)cc(OCC(=O)NCc2ccccc2OC)c2ccccc21	-0.08
COc1cccc(-c2ncnn2-c2sc3c(c2C#N)CCCCC3)c1OC	0.48
Cc1nc2c(C)cccc2cc1C(=O)N1CCCC2(CCc3cn[nH]c32)C1 (configuration not stated)	-1.06
CCN(Cc1nc(C(C)C)no1)C(=O)c1nc2ccc(Cl)cn2c1F	-0.03
c1ccc(-c2cc3ncc4c(n3n2)-c2ccccc2OC4)cc1	0.59
COc1cccc(-c2nc(CSCC(=O)NCCc3ccc(Cl)cc3)c(C)o2)c1	0.46
CCOc1ccc(CNCc2c(C(=O)O)c(C)n(Cc3c(F)cccc3Cl)c2C)cc1OC	-0.9
NC(=O)C1CC=CCC1NC(=O)CCC(=O)Nc1ccc2c(c1)CCC2 (configuration not stated)	0.35
Cc1ccc(CNC(=O)c2ccc(N3Cc4ccccc4Oc4ncccc43)s2)cc1	-1.84
Cc1ccc(CN(C(=O)c2cccc(-c3cnc(N)nc3)c2)C2CC2)s1	-1.19
COc1ccc(-c2noc(N(c3ccc(F)c(Cl)c3)c3nc(-c4ccc(OC)c(OC)c4)no3)n2)cc1OC	-0.04

A second format for some results above.
mol,fixLJ activator
COc1ccccc1CNC(=O)CCCCn1c(=O)c2ccccc2n(CC(=O)Nc2cc(Cl)ccc2C)c1=O,-2.58
CC(C)(CO)CCCNC(=O)N1CCC1c1ccc(F)cc1 (configuration not stated),-1.09
O=C(NCc1csc(N2CCCC2)n1)Nc1cccc2c1CCC2,-1.52
N#C/C(=C\c1cccc(F)c1)c1nc(-c2cc3c(ccc4ccccc43)oc2=O)cs1,0.43
COc1ccccc1-c1ncc(-c2nccn2C(C)c2nc(C)no2)s1 (configuration not stated),-0.56
Cc1cc(NC(=O)C2CCCN(S(=O)(=O)c3cccc4nsnc34)C2)ccc1Br (configuration not stated),-2.32
CCN(CC)CCNC(=O)c1ccc(NC(C)=O)cc1,-0.3

New compounds follow
SMILES	fixLJ activator
CCC(=O)N1CCc2cc(Br)cc(S(=O)(=O)CCC(=O)Nc3cccc(Cl)c3)c21	0.25
Cc1cccc(NC(=O)c2c(NC(=O)C(F)(F)F)sc3c2CCCCC3)c1	-6.5
Cc1cccc(CC(=O)NC2COCC2Cc2ccncc2)c1 (configuration not stated)	-1.51
O=C(Nc1cccc(-c2nc3ccccc3o2)c1)c1ccc(-c2ccc(Br)cc2)o1	-1.82
Cc1ccc(Sc2ccc(N3CCCC(C(=O)Nc4ccc(Cl)cc4)C3)nn2)cc1 (configuration not stated)	-0.02
CC(C)c1cc(N(C)CC2(CO)CCCC2)n2nccc2n1	-3.52
CCOc1ccc(N(C(=O)Cn2nnc3ccccc32)C(C(=O)NCc2ccccc2)c2ccc(OC)cc2)cc1 (configuration not stated)	-1.3
Cc1nc2nncn2c(Nc2ccc(F)cc2)c1C	-2.47
CCOCC(=O)N1CCC(c2nnc(Cn3cncn3)n2C2CC2)CC1	0.08
Cc1nc(C(C)NC(=O)c2c(C)oc3c2C(=O)CCC3)n[nH]1 (configuration not stated)	0.63
Cc1cc(=O)oc2cc(OCC(=O)Nc3c(C(C)C)cccc3C(C)C)ccc12	-1.32
COCC(NC(=O)c1ccc(N(C)S(C)(=O)=O)cc1)c1ccnn1C (configuration not stated)	-0.61
CCOC(=O)c1cc2c(=O)n3ccccc3nc2n(CC2CCCO2)c1=NC(=O)c1ccccc1F (configuration not stated)	-0.59
CCCn1c(SCc2nc(-c3cc(OC)ccc3OC)no2)nnc1-c1ccc(Cl)cc1	-2.23
CCOC(=O)NC1(C(F)(F)F)NC(=O)N(c2ccc(C)c(C)c2)C1=O (configuration not stated)	-0.26
CCCC12CN3CC(C)(CN(C1)C3c1cn(CC)c3ccccc13)C2=O (configuration not stated)	-1.89
O=C(CCc1nnc2n(Cc3ccccc3Cl)c(=O)c3ccccc3n12)Nc1ccc(F)cc1	-1.3
CCCCc1ccc(C(=O)N/C(=C\c2ccc(C)cc2)C(=O)NC2CCCCC2)cc1	1.18
COc1cccc(CNC(=O)CCc2c(C)c3cc4c(C)coc4c(C)c3oc2=O)c1	-0.62
CC(C)n1cnnc1CCNC(=O)C1CCN(C(=O)c2ccccn2)CC1	-0.75
Cc1cn2c(=O)cc(COc3cccc(NC(=O)c4ccccc4Cl)c3)nc2s1	-1
COc1ccc2nc(NS(=O)(=O)c3ccc(C)cc3)c(Nc3cc(Cl)ccc3OC)nc2c1	-4.1
Cc1ccc(NC(=O)c2oc3ccccc3c2NC(=O)c2ccc(F)c(F)c2)cc1	-0.44
COc1ccc(Br)cc1C(=O)Nc1cccc2ccc(C)nc12	-0.82
CCN1CCc2[nH]cnc2C12CCN(C(=O)c1ccn(C(F)F)n1)CC2	0.29
The list continues.
SMILES	fixLJ activator
CCN(c1ccccc1)S(=O)(=O)c1ccc(NC(=O)c2cc(=O)c3cc(C)cc(C)c3o2)cc1	-0.5
O=C(c1cc2ccccc2oc1=O)N1CCN(c2ccc(F)cc2)CC1	-2.21
COc1ccc(-n2c(=O)c3ccccc3n(CC(=O)NCCc3ccccc3)c2=O)c(OC)c1	0.08
Cc1cc(C)c(NC(=O)Nc2csc3c2CCCC3)c(C)c1	-1.18
Cc1cccc(NC(=O)Cn2c(=O)oc3cc(S(=O)(=O)NC4CCCC4)ccc32)c1	-0.28
CCNc1nc(Oc2ccc(OCC(=O)OC)nn2)nc(N2CCOCC2)n1	-0.92
Cc1ccc(NC(=O)CN2C(=O)CN=C(c3ccccc3)c3ccccc32)c(C)c1	-0.1
Cc1cc(C)cc(NS(=O)(=O)c2ccc3[nH]cc(C(=O)NCCc4ccccc4)c(=O)c3c2)c1	-0.9
Cc1ccc(CSc2oc(-c3ccco3)nc2S(=O)(=O)c2ccc(C)cc2)cc1	-0.02
Cc1ccc(-c2cc(CNC(=O)c3coc(CN4CCOCC4)c3)no2)cc1	-1.81
Cc1c(NC(=O)c2ccc(-c3cccc([N+](=O)[O-])c3)o2)cccc1-c1nc2cc(Cl)ccc2o1	-2.97
O=C(Nc1nc2nc(-c3ccccc3)cc(=O)n2[nH]1)c1ccc(F)cc1	-1.73
Cc1cccc(C(=O)Nc2ccc3oc(-c4ccncc4)nc3c2)c1	-0.66
Cc1cccc(NC(=O)C2CCN(S(=O)(=O)c3cccc4nsnc34)CC2)c1C	-0.49
CCOc1ccccc1NC(=O)c1c(NC(=O)COc2ccccc2)sc2c1CCCCC2	1.04
O=C(NCCn1ccnc1)c1cc(-c2ccco2)nc2c(Cl)cccc12	0.12
CN(Cc1nc2ccccc2s1)C(=O)c1cccc(-n2cnnc2)c1	-0.72
Cc1ccc(C)c(NC(=O)C2CCCN(c3nc4ccccc4s3)C2)c1 (configuration not stated)	-2.58
CCC(=O)N1CCc2cc(S(=O)(=O)NC(Cc3ccccc3)C(=O)NCc3ccccc3OC)ccc21 (configuration not stated)	-2.7
Cc1ccc(NC2(c3ccccc3)C(=O)c3ccccc3C2=O)cc1F	0.63
CCOc1ccc(NC(=O)c2ccc(-c3cccc(Cl)c3C)o2)cc1	-0.41
COCCn1c(CN2CCN(C3CCCC3)C(=O)C2)nnc1C1CC(N)C1 (configuration not stated)	-2.74
Cc1nc(CNC(=O)N(C)Cc2csc(C(C)C)n2)n[nH]1	-1.18
Cn1nccc1C(O)c1cc2n(n1)CCN(CC(=O)NCc1ccco1)C2 (configuration not stated)	-0.08
COc1ccc(-c2noc(CCC(=O)N(C)c3ccccc3C)n2)cc1	-1.83
Other results
SMILES	fixLJ activator
CC1(C)S[C@@H]2[C@H](NC(=O)Cc3ccccc3)C(=O)N2[C@H]1C(=O)O	-1.48
CCCCc1oc2ccccc2c1C(=O)c1cc(I)c(OCCN(CC)CC)c(I)c1	-2.17&-1.02
CCn1c(=O)cc(OCC(=O)N2CCN(c3ccc(C(C)=O)cc3)CC2)c2ccccc21	0.05
CC(C)(C)NC(=O)CCSc1nc(-c2ccc3c(c2)OCO3)cc(C(F)(F)F)n1	-1.9
Cc1ccccc1NC(=O)NCCCN1CCN(c2ccccc2F)CC1	-0.88
CCc1cccc(C)c1NC(=O)C1CCCN1S(=O)(=O)c1cccc2nsnc12 (configuration not stated)	-0.56
Cc1cccc(-c2cccc(NC(=O)NCC3(CO)CC3)c2)c1	-0.85
CCc1[nH]nc(C(=O)NC(c2ccc(OC)nc2)C2CC(O)C2)c1C (configuration not stated)	-1.13
CCOC(=O)c1c(Nc2ccc(F)cc2)nnc(-c2ccccc2)c1-c1ccccc1	0.45
CCN(Cc1nc(-c2ccc(OC)c(OC)c2)no1)S(=O)(=O)c1ccc(OC)cc1	-0.13
COC(=O)c1cc2oc3ccccc3c2n1Cc1nc(-c2ccc(OC)cc2)oc1C	-1.21
Cc1nc(-c2cccc(C(=O)N3C[C@]4(C)CC3CC(C)(C)C4)c2)nn1C	-0.22
CC(C)CC(NS(=O)(=O)c1ccc2c(c1)oc(=O)n2C)C(=O)NCc1ccccc1Cl (configuration not stated)	-1.54
COC(=O)c1ccc(NC(=O)CN(C)S(=O)(=O)c2ccc(Br)s2)cc1	-1.47
COc1ccc(OC(=O)c2nc(SCc3ccc(C)cc3)ncc2Cl)cc1	1.34
CC(=O)NC(C)C(=O)N(C)Cc1ccccc1OCC(C)C (configuration not stated)	-1.8

Arranged by heavy-atom count (descending): part of the list above.
SMILES	fixLJ activator
Cc1cc(C)c2nc(N3CCCC(C(=O)NCc4ccccc4F)C3)sc2c1 (configuration not stated)	-0.84
COc1ccc(OC(=O)c2nc(SCc3ccc(C)cc3)ncc2Cl)cc1	1.34
Cc1cccc(-n2c(=O)c3ccccc3n(Cc3ccccc3)c2=O)c1	-2.21
Cc1cc2c(cc1C)NC(CC(=O)Nc1cccc(Cl)c1)C(=O)N2 (configuration not stated)	-2.07

As entered above:
CCCCc1oc2ccccc2c1C(=O)c1cc(I)c(OCCN(CC)CC)c(I)c1 in fixLJ activator has -2.17&-1.02
Cc1ccccc1NC(=O)NCCCN1CCN(c2ccccc2F)CC1 in fixLJ activator has -0.88
